Bioassay records as filed in PubChem.
Biofilm kill mix – clotrimazole potentiators killing C. albicans biofilm, primary screen, 4-compound mixtures; AID 1242, 2008; C. albicans biofilm persisters + clotrimazole, fluorescence viability; primary screen in compound mixtures of four per well; inhibition, % at 7.6 µM; hit rate 0.02% among 120,000;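 active = inhibition above 30.3% in the primary screen of four-compound pools, then above 30% when the compound was retested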;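 note: compounds exposed to preformed 24 h biofilms for 48 h; the number belongs to the whole pool; some results filed as inactive read as strong as hits; inactives centre near 12; 0% = biofilm with clotrimazole alone and 100% = kill control; retested singly at about 60 µM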
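Incubation: 24 h biofilm formation, then 48 h compound exposure, 37 °C | Material: C. albicans biofilms | Buffer or medium: RPMI/MOPS medium, pH 7.0 | Measured by: 2-h Alamar Blue fluorescence, 535/590 nm excitation/emission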
Starred values were filed as active, the others as inactive. Not all compounds are listed, so the mix of outcomes need not match the whole.

SMILES	Biofilm kill mix
Cc1cccc(-n2c(C)cc(/C=N/O)c2C)c1	20.2
C=CCn1cc(C(=O)OC)c(=O)c2cc(S(=O)(=O)N3CCCCCC3)ccc21	14.3
COc1ccc(N2CC(O)=C(c3nc(-c4ccc(Cl)cc4)cs3)C2=N)cc1	14.5
O=[N+]([O-])c1ccc2nc(SCc3cn4ccccc4n3)[nH]c2c1	17.2
CCO[C@H]1OC(C(=O)NC2CC2)=C[C@@H](C)[C@@H]1CCCO	15.5
Cc1cccc(-c2nc3c(c(SCC(=O)N4CCOCC4)n2)CCCC3)c1	18.8
O=C(O)c1cnc(-c2ccccc2)nc1Oc1ccc(Cl)cc1	1.8
COc1ccc(-c2nn(-c3ccccc3)cc2/C=C/C(=O)N2CCOCC2)cc1OC	7.7
Cc1cccc(-c2nnc(NC(=O)c3cccs3)s2)c1	18.3
COC(=O)C1CCN(C(=O)COC(=O)c2ccc(OC)c(S(=O)(=O)N3CCCc4ccccc43)c2)CC1	-9.1
O=C(O)CN1C(=O)/C(=C/c2ccc(SCc3ccccc3)o2)SC1=S	-5.3
COc1ccc(NC(=S)N(CCCN2CCOCC2)C(C)c2cc3cccc(OC)c3o2)cc1 (centres undefined)	10.8
CSc1nc2ccc(NC(=O)NC(=O)c3c(F)cccc3F)cc2s1	18.8
CCc1nc(SCC(=O)Nc2ccc(N(C)C)cc2)c2ccccc2n1	8.7
CCC1CCc2c(sc(NC(=O)c3ccco3)c2C(N)=O)C1 (centres undefined)	14.2
COc1ccc(CCCC(=O)N/N=C/c2cccc(OC)c2O)cc1C	13.3
Nc1nnc(SCc2c(F)cccc2Cl)s1	20.9
Cc1c(NS(=O)(=O)c2ccc(N(C)C3CCCCC3)c([N+](=O)[O-])c2)c(=O)n(-c2ccccc2)n1C	17.8
O=C1NN(c2ccccc2)C(=O)/C1=C/c1cccs1	22.3
O=C(Nc1ccc2c(c1)OCCO2)c1cc2ccccc2o1	19.4
CN(c1ccc(OCC(=O)OCC(=O)Nc2ccc(F)cc2)cc1)S(=O)(=O)c1ccc(Cl)cc1	13.6
COc1ccc(NC(=O)c2ccc(C)cc2)c(OC)c1	4.7
CSC1=C(C#N)C(c2ccccc2Cl)C(C(C)=O)=C(C)N1 (centres undefined)	6.5
COc1ccc(C2(C(=O)NCc3ccccc3Cl)CCOCC2)cc1OC	24.2

Brought forward from above: 5 entries; new compounds follow.
SMILES	Biofilm kill mix
O=C(Nc1ccc2c(c1)OCCO2)c1cc2ccccc2o1	19.4
CN(c1ccc(OCC(=O)OCC(=O)Nc2ccc(F)cc2)cc1)S(=O)(=O)c1ccc(Cl)cc1	13.6
COc1ccc(NC(=O)c2ccc(C)cc2)c(OC)c1	4.7
CSC1=C(C#N)C(c2ccccc2Cl)C(C(C)=O)=C(C)N1 (centres undefined)	6.5
COc1ccc(C2(C(=O)NCc3ccccc3Cl)CCOCC2)cc1OC	24.2
CCOC(=O)c1nnn2c1nc(N(CC)CC)c1ccccc12	2.6
CC(=O)Nc1ccc(C2NC(=S)N(c3ccccc3C(F)(F)F)C(C)=C2C(=O)N2CCOCC2)cc1 (centres undefined)	17.9
Cc1cc(/C=N/NC(=O)c2nn(C)cc2Cl)c(C)n1-c1cccc(Br)c1	17.0
O=C(N/N=C/C(Br)=C/c1ccccc1)C(O)c1ccccc1 (centres undefined)	9.4
O=C(c1ccccc1)N1N=C(c2ccccc2)CC1c1ccccc1O (centres undefined)	18.9
CC(=O)NC(=S)Nc1cccc([N+](=O)[O-])c1	16.1
CCOC(=O)c1cn2nc(Oc3ccc(C(=O)OC)cc3)ccc2n1	7.0
Cc1ccc(C(=O)NC2CCN(CC(=O)Nc3cccc([N+](=O)[O-])c3)CC2)cc1	11.2
COc1ccc(N(CC(=O)N/N=C(\C)CCc2ccccc2)S(=O)(=O)c2ccc(C)cc2)cc1	13.6
CC1CCCN(CCC(=O)Nc2ccc3c(c2)CCC3)C1 (centres undefined)	21.4
NC(CCCCCP(=O)(c1ccccc1)c1ccccc1)C(=O)O (centres undefined)	13.7
CCc1ccc(C2c3[nH]c4ccccc4c3CCN2C(=O)c2ccc(=O)n(C)n2)cc1 (centres undefined)	-4.9
Cc1c(C(=O)Nc2ccccc2)cn2c(nc3ccccc32)c1C#N	0.4
O=C(Nc1ccccc1C(=O)O)c1cc(S(=O)(=O)N2CCOCC2)cs1	5.4
O=C(Nc1ccc(F)cc1)C(c1ccccc1)N1CCN(S(=O)(=O)c2ccccc2)CC1 (centres undefined)	2.2
CCCCc1ccc(S(=O)(=O)NNC(=S)NCc2ccco2)cc1	13.7
COc1nc(-c2cccc([N+](=O)[O-])c2)nc2ccccc12	24.3
CSc1ncccc1C(=O)OCC(=O)NC(C)(C)C	18.2
C[C@]12C=CC(=O)C=C1CC[C@H]1[C@@H]3C[C@@H](O)[C@](O)(C(=O)CO)[C@@]3(C)C[C@H](O)[C@@]12F	6.3
COC(=O)Cn1c(=O)c(C(=O)CCl)c(N)n(Cc2ccccc2)c1=O	12.9
CCOC(=O)c1cc(-c2ccc(OC(F)F)cc2)nc2c1c(=O)[nH]c(=O)n2C	2.1
CCOP(=O)(OCC)C(NC(=O)c1ccc(OC)c(OC)c1)c1ccccc1 (centres undefined)	7.3
CCOc1ccccc1NC(=O)CCN(c1ccc(C)cc1)S(=O)(=O)c1ccccc1	-6.8
COc1ccc(C2CC(O)(c3ccccc3)Oc3cc(OC)ccc32)cc1 (centres undefined)	13.8

Rewritten bar-delimited: 2 of the compounds above
compound | Biofilm kill mix
CC(=O)NC(=S)Nc1cccc([N+](=O)[O-])c1 | 16.1
Cc1cccc(-c2nc3c(c(SCC(=O)N4CCOCC4)n2)CCCC3)c1 | 18.8

Continuation.
SMILES	Biofilm kill mix
C=C(C)C1CC=C(C)/C(=N/NC(=O)c2cccc([N+](=O)[O-])c2)C1 (centres undefined)	12.9
Cc1ncc([N+](=O)[O-])n1CCOC(=O)Nc1ccc([N+](=O)[O-])cc1	16.6
c1ccc2c(NCC3CCCO3)nc(N3CCCCC3)nc2c1 (centres undefined)	22.1
CCc1nnc(N/N=C/c2c(C)[nH]c3ccccc23)n1N	15.7
CCCc1ccc(OCC(=O)Nc2cc(S(=O)(=O)CC)ccc2O)cc1	24.7
Cc1ccc(-c2csc(NC(=O)N3CCOCC3)n2)cc1	23.7
N/C(=N\OC(=O)c1ccc(Br)o1)c1ccccn1	-9.3
COc1ccc(-c2cc(-c3ccccc3)nc(SCC(=O)Nc3nccs3)c2C#N)cc1	5.6
CCOC(=O)c1c(NC(=O)C2C3C=CC(C3)C2C(=O)O)sc2c1CC(C)CC2 (centres undefined)	9.2
O=C1CCCC(=O)N1c1ccc(O)cc1	7.8
CC(=O)Oc1ccc(C(=O)Nc2cc(NC(=O)c3ccc(OC(C)=O)cc3)cc(C(=O)NC(C)(C)C)c2)cc1	6.2
COc1cccc(C(=O)N/N=C(\CC(C)C)c2ccccc2)c1	-8.4
O=C(CCC(=O)OCc1cccc([N+](=O)[O-])c1)Nc1ccccc1Cl	11.8
CSc1ccc(CN(C)CC(=O)Nc2ccccc2Br)cc1	7.3
COc1ccccc1CNC(=O)CN1CCN(S(=O)(=O)c2cccs2)CC1	18.1
COC1=C/C(=C/c2c(N)n3c(nc2=O)sc2cc(S(C)(=O)=O)ccc23)C=CC1=O	20.6
O=C(NC(=O)c1cccc(F)c1)Nc1nc(-c2ccc(F)cc2)cc(C(F)(F)F)n1	7.0
c1ccc(-c2nc3ccccc3[nH]2)nc1	14.0
COc1ccc(/C=C(/NC(=O)c2cccs2)C(=O)Nc2ccc(C)cc2)cc1OC	-2.8
CN1Cc2ccccc2CC1CNCc1c(C(=O)N2CCCC2)nc2ccccn12 (centres undefined)	14.0
COc1ccc(S(=O)(=O)N/N=C\c2ccc(OC)c(COc3ccc(C)cc3[N+](=O)[O-])c2)cc1	12.6
COc1ccc(N(CC(=O)Nc2ccccc2C)S(=O)(=O)c2ccccc2[N+](=O)[O-])c(OC)c1	0.6
O=C(NCc1n[nH]c(=S)n1-c1ccc(Cl)c(Cl)c1)c1cccs1	12.2
COc1ccc(NC(=O)/C(=C\c2cccs2)NC(=O)c2ccco2)cc1	13.5
CC1SC(C)C(=O)N(CC(=O)Nc2ccc([N+](=O)[O-])cc2)C1=O (centres undefined)	6.0
CCN(CC(=O)Nc1ccc(C)c(F)c1)CC(=O)NC(C)(C)C	10.9
Cc1cccc(OCc2nnc(SCC(=O)N3CC(=O)Nc4ccccc43)o2)c1	4.1
COc1ccc(CCNC(=O)C2CCN(C(=O)c3ccc([N+](=O)[O-])cc3)CC2)cc1	27.1
Cc1cccc(NC(=S)NCC(c2cccnc2)N2CCOCC2)c1 (centres undefined)	3.8
O=C1c2ccccc2C(=O)c2c(Nc3ccc(CCO)cc3)ccc(O)c21	4.0
CCN(CC)S(=O)(=O)c1ccc(/C=C/C(=O)OCC(=O)N(C)C)cc1	7.1
COc1ccc(C)cc1S(=O)(=O)N(C)CC(=O)N1CCC(C(N)=O)CC1	2.3
N=C1c2ccccc2CN1NC(=O)c1cccc(S(=O)(=O)N2CCCC2)c1	14.2
CCC(C(=O)Nc1ccc(C(C)C)cc1)c1ccccc1 (centres undefined)	14.2
COc1cccc(OCC(=O)O/N=C(\N)c2ccc(OC)c(OC)c2)c1	2.8
COC(=O)c1ccc(C(=O)OC)c(NC(=S)N2CCN(c3cccc(Cl)c3)CC2)c1	9.9
C=CCNC(=O)CSc1nnc(C(CC)N(C)C)n1C1CCCCC1 (centres undefined)	9.8
CCOc1cc(C=O)ccc1OCC(=O)N1CCCC1	20.4
CCOC(=O)C1(Cc2cccc(OC)c2)CCN(CC(O)CO)CC1 (centres undefined)	27.3
CCOc1ccc(N(CC(=O)Nc2ccccc2C(=O)NC(C)CC)S(C)(=O)=O)cc1 (centres undefined)	5.2
CC(C)c1ccc(/C=C(\NC(=O)c2ccccc2)C(=O)NCCCN2CCOCC2)cc1	3.3
CNc1nc2c(C)cccn2c(=O)c1C=Nc1ccc(OC)cc1	-11.7
Cc1cc(C)c(C)c(Cn2c(CO)nc3ccccc32)c1C	8.8
O=C(O)CCC(=O)NNC(=O)CCC(=O)Nc1ccccc1	3.2
COC(=O)c1ccc(-c2noc(CN(C)CCC3CCCCO3)n2)cc1 (centres undefined)	5.3
Cc1ccc(NNC(=O)c2snnc2C)cc1Cl	16.4
Cc1ccc(S(=O)(=O)NCCC(c2ccc(F)cc2)c2ccco2)cc1 (centres undefined)	9.2
NC(=O)c1ccc(C23CC4CC(CC(C4)C2)C3)o1	11.2

Three structures out of the list, arranged by molecular weight, low to high.
SMILES	Biofilm kill mix
NC(=O)c1ccc(C23CC4CC(CC(C4)C2)C3)o1	11.2
CCOc1cc(C=O)ccc1OCC(=O)N1CCCC1	20.4
O=C(O)CCC(=O)NNC(=O)CCC(=O)Nc1ccccc1	3.2

Next records.
SMILES	Biofilm kill mix
O=c1cc(N2CCCCC2)c(-c2ccccc2)nn1Cc1ccccc1	18.7
COC(=O)c1ccc(C(=O)OCCCc2nc3ccc(N)cc3[nH]2)cc1	5.5
O=C(COc1cc(Cl)c(Cl)cc1Cl)N1CCN(c2ccccn2)CC1	9.5
COc1ccc(/C=C/C(=O)NC(=S)Nc2ccc(S(=O)(=O)Nc3cc(OC)ncn3)cc2)cc1	13.6
O=C1C(=O)c2ccccc2C(O)=C1c1ccccc1F	6.4
Cn1c(SCCC#N)nnc1-c1ccc(F)cc1	14.2
O=C(O)CCC(=O)NNc1ccccc1[N+](=O)[O-]	7.0
COC12NC(=O)N(C)C1(OC)C(=O)N(C)C(=O)N2C (centres undefined)	8.4
O=C(Nc1cccc(S(=O)(=O)N2CCCCCC2)c1)c1cc(=O)c2ccccc2o1	5.5
CCCCOC(=O)c1cc(=O)[nH]c(=O)[nH]1	-6.6
CC(C)CN1CCNC(=O)C1CC(=O)NCCc1ccc(C(F)(F)F)cc1 (centres undefined)	11.3
Cc1c(NC(NC(=O)CC(C)C)C(Cl)(Cl)Cl)c(=O)n(-c2ccccc2)n1C (centres undefined)	-0.5
CCOC(=O)c1oc2cc(C)cc(C)c2c1C	10.4
O=C(Nc1cnn(Cc2ccc(Cl)cc2)c1)c1cccs1	-10.3
O=C(NC(C(=O)c1ccccc1)n1c(=O)cc[nH]c1=S)c1ccccc1 (centres undefined)	14.2
CCCCc1ncc(CN2CCC(CC3CCCCO3)(C(=O)OCC)CC2)[nH]1 (centres undefined)	5.0
CCC(C)NC(=O)c1cn(CC)c2cc(N3CCN(C)CC3)c(F)cc2c1=O (centres undefined)	24.0
O=C1c2ccccc2S(=O)(=O)N1Cc1nnc(-c2ccccc2Br)o1	-9.0
COC(=O)C1=C(O)C2(C(=O)O)CC(C(=O)OC)=C(O)C(C(=O)O)(C1)C2	14.8
CC(=O)c1ccc(Nc2ccc(-c3ccccc3C)nn2)cc1	19.7
CCCCOc1cccc(-c2nnc(NC(=O)CSc3ccc(C)cc3)s2)c1	3.8
Cc1csc(NC(=O)[C@@H](NC(=O)c2ccccc2)C(C)C)n1	12.9
C=CCNC(=O)c1cc(C(=O)C(C)c2ncc(C(F)(F)F)cc2Cl)c[nH]1 (centres undefined)	15.5
CCc1ccc(OCC(=O)NC(=S)Nc2ccc(Br)c(C)n2)cc1	24.5
O=C(CSc1ncn[nH]1)Nc1ccc(Cl)c(S(=O)(=O)N2CCOCC2)c1	17.0
CCc1cccc(NC(=O)CSc2nc3c(c(=O)[nH]2)CCCC3)c1	15.8
O=C(c1cn(-c2ccccc2)nc1-c1ccccc1)N1CCOCC1	11.9
CC1CCc2c(C(=O)NCc3ccco3)csc2C1 (centres undefined)	14.9
C[C@H](CO)NC(=O)[C@@H]1C[C@H]1[C@@H](NP(=O)(c1ccccc1)c1ccccc1)c1ccccc1	13.6
NC(=O)c1ccc(N2CCN(c3ncc(C(F)(F)F)cc3Cl)CC2)cc1	18.3
O=C(COC(=O)CCC1CCCC1)Nc1ccccc1OC(F)F	11.7
